Ran importin = inhibitors of Ran–importin-beta complex formation, primary screen, biochemical, CFP-Ran/YFP-importin-beta FRET, RCC1, cell-free (AID 434961); CFP-Ran/YFP-importin-beta FRET, cell-free; active compounds read high; 7,700 compounds, 0.2% hits; inhibition, %;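 active means more than half of the replicate wells above 15% inhibition; inconclusive means exactly half above it; inactive means fewer than half above it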;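 further: 0% = DMSO wells and 100% inhibition = RanGDP control wells on each plate; stock of unstated strength diluted about 400-fold; mean of two wells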
An asterisk follows results filed as active; ? = inconclusive. A portion of the library; the hit share may differ from the screen's.

SMILES | Ran importin
CC(C)NC(=O)N(C)C[C@H]1OCCCC[C@H](C)Oc2ccc(NC(=O)Nc3cccc4ccccc34)cc2C(=O)N([C@H](C)CO)C[C@H]1C | 1.7
C[C@H]1CN([C@@H](C)CO)C(=O)c2cc(NC(=O)Nc3ccc(C(F)(F)F)cc3)ccc2O[C@@H]1CN(C)C(=O)NC1CCCCC1 | 2.5
CNC[C@@H]1OCCCC[C@H](C)Oc2ccc(NC(=O)NC(C)C)cc2C(=O)N([C@@H](C)CO)C[C@@H]1C | ?
C[C@H]1CN([C@@H](C)CO)C(=O)Cc2cc(NC(=O)NC3CCCCC3)ccc2O[C@H]1CN(C)C(=O)Nc1ccc2c(c1)OCO2 | -1.9
C[C@@H]1CN([C@H](C)CO)C(=O)c2cc(NC(=O)Nc3ccc4c(c3)OCO4)ccc2O[C@@H]1CN(C)Cc1ccncc1 | -4.6
COc1ccc(S(=O)(=O)N(C)C[C@H]2Oc3ccc(NC(=O)Nc4ccc5c(c4)OCO5)cc3CC(=O)N([C@@H](C)CO)C[C@H]2C)cc1 | -3.3
C[C@H]1CN([C@@H](C)CO)C(=O)c2cc(NC(=O)CCC(F)(F)F)ccc2O[C@@H]1CN(C)C(=O)Nc1ccccc1 | -1.6
COc1ccc(CN(C)C[C@H]2Oc3ccc(NC(=O)Cc4cn(C)c5ccccc45)cc3CC(=O)N([C@H](C)CO)C[C@@H]2C)cc1 | 1.0
C[C@@H]1CN([C@@H](C)CO)C(=O)c2cc(NC(=O)Cc3ccccc3)ccc2O[C@H]1CN(C)C(=O)Nc1ccc(F)cc1 | 3.8
C[C@@H]1CCCCO[C@@H](CN(C)C(=O)C2CCCCC2)[C@@H](C)CN([C@H](C)CO)C(=O)c2cc(NS(=O)(=O)c3cccs3)ccc2O1 | 0.5
C[C@@H]1CCCCO[C@@H](CN(C)C(=O)CCC(F)(F)F)[C@H](C)CN([C@H](C)CO)C(=O)c2cc(NS(=O)(=O)c3cccs3)ccc2O1 | -2.6
Cc1noc(C)c1NC(=O)N(C)C[C@@H]1Oc2ccc(NC(=O)Nc3ccc(F)cc3)cc2C(=O)N([C@H](C)CO)C[C@@H]1C | 0.5
CC(C)NC(=O)Nc1ccc2c(c1)C(=O)N([C@H](C)CO)C[C@H](C)[C@H](CN(C)C(=O)CCCN(C)C)OCCCC[C@@H](C)O2 | 2.7
CC(C)NC(=O)N(C)C[C@H]1OCCCC[C@H](C)Oc2ccc(N(C)C)cc2C(=O)N([C@H](C)CO)C[C@@H]1C | 2.1
C[C@@H]1CN([C@@H](C)CO)C(=O)CCCn2cc(nn2)CO[C@H]1CN(C)S(=O)(=O)c1ccc(-n2cccn2)cc1 | 4.4
COc1ccc(S(=O)(=O)N(C)C[C@H]2Oc3ccc(NC(=O)Nc4cccc5ccccc45)cc3C(=O)N([C@H](C)CO)C[C@@H]2C)cc1 | -4.5
C[C@@H]1CN([C@@H](C)CO)C(=O)c2cc(NC(=O)Cc3ccccc3)ccc2O[C@@H](C)CCCCO[C@@H]1CN(C)C | -2.4
C[C@H](CO)N1C[C@H](C)[C@H](CN(C)C(=O)Nc2ccc(F)cc2)Oc2ccc(NC(=O)Cc3cn(C)c4ccccc34)cc2CC1=O | 1.3
COc1ccccc1CN(C)C[C@H]1OCc2cnnn2CCCC(=O)N([C@@H](C)CO)C[C@@H]1C | 6.5
C[C@@H]1CN([C@H](C)CO)C(=O)CCCn2cc(nn2)CO[C@H]1CN(C)C | 1.5
Cc1noc(C)c1NC(=O)N(C)C[C@H]1Oc2ccc(NC(=O)Nc3ccc4c(c3)OCO4)cc2C(=O)N([C@@H](C)CO)C[C@@H]1C | 5.9
C[C@@H]1CN([C@H](C)CO)C(=O)c2cc(NS(=O)(=O)c3ccccc3)ccc2O[C@@H](C)CCCCO[C@H]1CN(C)Cc1ccncc1 | -12
Cc1noc(C)c1S(=O)(=O)Nc1ccc2c(c1)C(=O)N([C@@H](C)CO)C[C@H](C)[C@@H](CN(C)C(=O)Cc1ccccc1)OCCCC[C@H](C)O2 | 2.7
COc1ccc(NC(=O)Nc2ccc3c(c2)C(=O)N([C@H](C)CO)C[C@H](C)[C@@H](CN(C)S(=O)(=O)c2cccs2)O3)cc1 | -2.4
CNC[C@@H]1Oc2c(NS(C)(=O)=O)cccc2C(=O)N([C@@H](C)CO)C[C@H]1C | 4.2

4 entries from above, with each value named.
C[C@H]1CN([C@@H](C)CO)C(=O)Cc2cc(NC(=O)NC3CCCCC3)ccc2O[C@H]1CN(C)C(=O)Nc1ccc2c(c1)OCO2
  Ran importin: -1.9

C[C@@H]1CN([C@H](C)CO)C(=O)c2cc(NC(=O)Nc3ccc4c(c3)OCO4)ccc2O[C@@H]1CN(C)Cc1ccncc1
  Ran importin: -4.6

COc1ccc(S(=O)(=O)N(C)C[C@H]2Oc3ccc(NC(=O)Nc4ccc5c(c4)OCO5)cc3CC(=O)N([C@@H](C)CO)C[C@H]2C)cc1
  Ran importin: -3.3

C[C@H]1CN([C@@H](C)CO)C(=O)c2cc(NC(=O)CCC(F)(F)F)ccc2O[C@@H]1CN(C)C(=O)Nc1ccccc1
  Ran importin: -1.6

Additional results
SMILES | Ran importin
C[C@H]1CN([C@@H](C)CO)C(=O)c2cccc(NS(C)(=O)=O)c2O[C@H]1CN(C)C(=O)Nc1ccc(C(F)(F)F)cc1 | -6.9
C[C@@H]1CN([C@H](C)CO)C(=O)c2cc(NS(=O)(=O)c3cn(C)cn3)ccc2O[C@@H]1CN(C)Cc1ccccc1 | 0.3
COc1ccc(CN(C)C[C@@H]2Oc3ccc(NC(=O)c4ccncc4)cc3CC(=O)N([C@@H](C)CO)C[C@@H]2C)cc1 | ?
C[C@H](CO)N1C[C@H](C)[C@@H](CN(C)C(=O)NC2CCCCC2)Oc2ccc(NS(C)(=O)=O)cc2CC1=O | -0.9
C[C@H]1CCCCO[C@H](CN(C)C(=O)Nc2ccccc2)[C@@H](C)CN([C@@H](C)CO)C(=O)c2cc(N(C)C)ccc2O1 | 9.2
CCCN(C)C[C@@H]1Oc2ncc(C#Cc3ccccc3)cc2C(=O)N([C@H](C)CO)C[C@@H]1C | 3.9
C[C@@H]1CN([C@H](C)CO)C(=O)Cc2cc(NC(=O)Nc3ccc4c(c3)OCO4)ccc2O[C@H]1CN(C)C(=O)NC1CCCCC1 | 1.6
C[C@H]1CN([C@@H](C)CO)C(=O)Cc2cc(NC(=O)NC3CCCCC3)ccc2O[C@@H]1CN(C)C | ?
COc1ccc(S(=O)(=O)Nc2cccc3c2O[C@H](CN(C)C)[C@@H](C)CN([C@@H](C)CO)C3=O)cc1 | -3.8
C[C@H]1CCCCO[C@H](CN(C)S(=O)(=O)c2ccccc2)[C@@H](C)CN([C@@H](C)CO)C(=O)c2cc(NC(=O)CCC(F)(F)F)ccc2O1 | -2.6
C[C@@H]1CCCCO[C@@H](CN(C)C(=O)C2CCCCC2)[C@H](C)CN([C@H](C)CO)C(=O)c2cc(NC(=O)c3ccncc3)ccc2O1 | 1.4
COc1ccc(NC(=O)Nc2ccc3c(c2)C(=O)N([C@H](C)CO)C[C@H](C)[C@H](CN(C)S(=O)(=O)c2cn(C)cn2)O3)cc1 | 5.5
C[C@@H]1CN([C@@H](C)CO)C(=O)Cc2cc(NC(=O)Cc3ccccc3)ccc2O[C@@H]1CN(C)C(=O)Nc1ccccc1 | -1.7
COc1ccc(CN(C)C[C@H]2Oc3ccc(NC(=O)CCC(F)(F)F)cc3C(=O)N([C@@H](C)CO)C[C@@H]2C)cc1 | 0.2
C[C@@H]1CN([C@@H](C)CO)C(=O)c2cccc(NC(=O)NC3CCCCC3)c2O[C@@H]1CN(C)S(=O)(=O)c1cccs1 | ?
C[C@@H]1CCCCO[C@H](CN(C)Cc2ccccc2)[C@H](C)CN([C@@H](C)CO)C(=O)c2cc(NS(=O)(=O)c3ccccc3)ccc2O1 | 4.0
Cc1noc(C)c1S(=O)(=O)Nc1ccc2c(c1)CC(=O)N([C@H](C)CO)C[C@H](C)[C@H](CN(C)C(=O)Nc1ccccc1)O2 | ?
C[C@H](CO)N1C[C@H](C)[C@@H](CN(C)Cc2ccncc2)Oc2c(NC(=O)C3CCOCC3)cccc2C1=O | -11
COc1ccc(S(=O)(=O)Nc2cccc3c2O[C@H](CN(C)Cc2ccc4c(c2)OCO4)[C@@H](C)CN([C@@H](C)CO)C3=O)cc1 | 1.7
CNC[C@@H]1Oc2c(NC(=O)Nc3c(C)noc3C)cccc2C(=O)N([C@@H](C)CO)C[C@@H]1C | -1.0
CCCC(O)C#Cc1cnc2c(c1)C(=O)N([C@H](C)CO)C[C@H](C)[C@H](CN(C)S(=O)(=O)c1ccc(OC)cc1)O2 (stereo not given in full) | 4.0
C[C@H]1CCCCO[C@@H](CN(C)C(=O)C2CCCCC2)[C@@H](C)CN([C@@H](C)CO)C(=O)c2cc(NS(=O)(=O)c3cn(C)cn3)ccc2O1 | 0.3
CNC[C@H]1Oc2c(NC(=O)c3nc4ccccc4s3)cccc2C(=O)N([C@H](C)CO)C[C@@H]1C | -6.4
C[C@@H]1CN([C@@H](C)CO)C(=O)c2cc(NC(=O)Nc3ccc4c(c3)OCO4)ccc2O[C@@H]1CN(C)S(=O)(=O)c1cn(C)cn1 | -1.2
CC(C)NC(=O)N(C)C[C@@H]1Oc2ccc(NC(=O)CCC(F)(F)F)cc2C(=O)N([C@H](C)CO)C[C@H]1C | 1.9

Three records picked at random from the list so far:
SMILES | Ran importin
CCCC(O)C#Cc1cnc2c(c1)C(=O)N([C@H](C)CO)C[C@H](C)[C@H](CN(C)S(=O)(=O)c1ccc(OC)cc1)O2 (stereo not given in full) | 4.0
C[C@H](CO)N1C[C@H](C)[C@@H](CN(C)C(=O)NC2CCCCC2)Oc2ccc(NS(C)(=O)=O)cc2CC1=O | -0.9
C[C@@H]1CCCCO[C@H](CN(C)Cc2ccccc2)[C@H](C)CN([C@@H](C)CO)C(=O)c2cc(NS(=O)(=O)c3ccccc3)ccc2O1 | 4.0

Additional compounds follow.
SMILES | Ran importin
C[C@@H]1CN([C@H](C)CO)C(=O)c2cc(N(C)C)ccc2O[C@@H]1CN(C)Cc1ccc2c(c1)OCO2 | -5.6
CNC[C@H]1Oc2c(NC(=O)c3ccncc3)cccc2C(=O)N([C@@H](C)CO)C[C@@H]1C | 0.8
Cc1noc(C)c1NC(=O)N(C)C[C@H]1OCCCC[C@@H](C)Oc2ccc(NS(=O)(=O)c3cn(C)cn3)cc2C(=O)N([C@H](C)CO)C[C@H]1C | -6.7
CC(C)NC(=O)N(C)C[C@H]1OCCCC[C@H](C)Oc2ccc(NS(=O)(=O)c3ccccc3)cc2C(=O)N([C@H](C)CO)C[C@@H]1C | 3.0
COc1ccc(CN(C)C[C@H]2Oc3ccc(NC(=O)Cc4cn(C)c5ccccc45)cc3CC(=O)N([C@@H](C)CO)C[C@H]2C)cc1 | -2.2
C[C@H]1CN([C@@H](C)CO)C(=O)Cc2cc(NC(=O)Cn3cnnn3)ccc2O[C@@H]1CN(C)C | -5.7
Cc1noc(C)c1NC(=O)Nc1cccc2c1O[C@@H](CN(C)S(=O)(=O)c1cn(C)cn1)[C@@H](C)CN([C@H](C)CO)C2=O | -4.8
Cc1noc(C)c1NC(=O)N(C)C[C@H]1Oc2ccc(N(C)C)cc2CC(=O)N([C@@H](C)CO)C[C@H]1C | -0.3
CNC[C@@H]1OCCCC[C@H](C)Oc2ccc(NS(=O)(=O)c3c(C)noc3C)cc2C(=O)N([C@@H](C)CO)C[C@@H]1C | -4.4
C[C@H]1CN([C@@H](C)CO)C(=O)CCCn2cc(nn2)CO[C@H]1CN(C)C(=O)Nc1ccc(-c2cccs2)cc1 | 2.8
Cc1noc(C)c1NC(=O)N(C)C[C@@H]1Oc2ccc(NC(=O)C3CC3)cc2CC(=O)N([C@H](C)CO)C[C@@H]1C | 3.6
Cc1noc(C)c1NC(=O)N(C)C[C@H]1OCCCC[C@H](C)Oc2ccc(N(C)C)cc2C(=O)N([C@@H](C)CO)C[C@@H]1C | 1.1
Cc1noc(C)c1NC(=O)Nc1ccc2c(c1)C(=O)N([C@@H](C)CO)C[C@H](C)[C@@H](CN(C)C(=O)NC1CCCCC1)O2 | 1.1
C[C@@H]1CN([C@@H](C)CO)C(=O)c2cc(NC(=O)c3ccncc3)ccc2O[C@@H](C)CCCCO[C@@H]1CN(C)Cc1ccc(C(=O)O)cc1 | 1.7
CC(C)NC(=O)N(C)C[C@H]1Oc2ccc(NC(=O)CCN3CCOCC3)cc2C(=O)N([C@@H](C)CO)C[C@H]1C | -0.9
C[C@H](CO)N1C[C@H](C)[C@@H](CN(C)Cc2ccncc2)Oc2ccc(NC(=O)Nc3ccccc3)cc2CC1=O | 6.4
C[C@@H]1CN([C@@H](C)CO)C(=O)c2cc(NS(C)(=O)=O)ccc2O[C@@H](C)CCCCO[C@@H]1CN(C)C(=O)Nc1ccc2c(c1)OCO2 | 2.2
C[C@@H]1CN([C@H](C)CO)C(=O)c2cc(NC(=O)Nc3ccc4c(c3)OCO4)ccc2O[C@@H]1CN(C)C(=O)Nc1ccc(F)cc1 | 1.5
C[C@@H]1CN([C@@H](C)CO)C(=O)c2cc(NC(=O)Nc3cccc4ccccc34)ccc2O[C@H]1CN(C)C(=O)Nc1ccc2c(c1)OCO2 | -0.8
C[C@H]1CCCCO[C@@H](CN(C)C)[C@@H](C)CN([C@@H](C)CO)C(=O)c2cc(NS(=O)(=O)c3cccs3)ccc2O1 | 3.0
C[C@@H]1CCCCO[C@@H](CN(C)S(=O)(=O)c2cccs2)[C@H](C)CN([C@@H](C)CO)C(=O)c2cc(N(C)C)ccc2O1 | -2.4
CNC[C@H]1Oc2ccc(NC(=O)CCCN(C)C)cc2C(=O)N([C@H](C)CO)C[C@@H]1C | -2.0
Cc1noc(C)c1NC(=O)Nc1ccc2c(c1)C(=O)N([C@H](C)CO)C[C@H](C)[C@@H](CN(C)C(=O)CCCN(C)C)OCCCC[C@@H](C)O2 | -4.9
